VDR inhibitor: vitamin D3 receptor (human) inhibition; AID 504847; actives 0.93% (n = 400,000); Potency, µM, for inactives: max response, negative = inhibition, hits mostly inhibitors; P11473; VDR-SRC2-3 peptide fluorescence polarization, 2 h; active = well fitted inhibition curve with a large enough effect; inconclusive = small, poorly fitted or top-dose-only effect, or another doubt; inactive = no such curve, though single readings can be large or run the other way; note: series mostly up to about 120 µM
Target sequence (P11473 whole entry, looked up): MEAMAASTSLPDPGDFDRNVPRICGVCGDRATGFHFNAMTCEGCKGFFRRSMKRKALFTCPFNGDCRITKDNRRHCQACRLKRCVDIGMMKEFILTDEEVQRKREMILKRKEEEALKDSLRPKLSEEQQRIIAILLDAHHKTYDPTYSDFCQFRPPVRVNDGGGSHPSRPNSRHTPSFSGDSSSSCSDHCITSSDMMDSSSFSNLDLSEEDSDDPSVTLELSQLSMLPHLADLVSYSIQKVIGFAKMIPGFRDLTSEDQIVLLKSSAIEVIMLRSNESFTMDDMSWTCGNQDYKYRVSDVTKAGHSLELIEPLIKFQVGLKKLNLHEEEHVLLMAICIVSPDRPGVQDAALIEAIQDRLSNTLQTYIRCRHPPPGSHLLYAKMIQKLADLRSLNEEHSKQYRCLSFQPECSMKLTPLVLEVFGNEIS
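The screen uses fluorescence polarization to detect compounds that interfere with recruitment of the SRC2-3 coactivator peptide to VDR; plates are read after 2 h at room temperature.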
* marks the source's active call; other numbers are inactive results; ? = inconclusive; & = joins results of further samples. % is set by controls: 0 for no effect and ±100 for the full control effect; potency is the fitted concentration of half-maximal effect.

SMILES | VDR inhibitor
Cc1cccc(OCC(O)CN2CCN(C3CCCCC3)CC2)c1 (centres undefined) | -3%
Cc1ccc(NC(=O)CCc2nnc3ccc(N4CCN(C)CC4)nn23)cc1F | 0%
CC(=O)/C(N=Nc1ccc(OC(F)(F)F)cc1)=C(\C)O | -4%
Cc1ccc(OCC(=O)Nc2ccc(O)c(C(=O)O)c2)cc1C | 20%
O=C(COC(=O)c1cc([N+](=O)[O-])ccc1NCCO)Nc1ccc2c(c1)OCO2 | -8%
N#CCSCC(=O)Nc1ccc(Br)cc1 | -15%
CC1CCc2cccc3c(O)cc(=O)n1c23 (centres undefined) | 13%
CC(=O)NNC(=S)NC(=O)c1cccc([N+](=O)[O-])c1 | ?
CCNC(=O)C(=O)NCc1ccncc1 | -7%
Cc1ccccc1NS(=O)(=O)c1cc(C(=O)NCCC2=CCCCC2)ccc1Cl | 12%
CC(C)(C)c1ccc(CCC2OCC(C[N+]3(C)CCOCC3)O2)cc1 (centres undefined) | -5%
C#CCNC(=O)C1=C[C@@H](c2ccc(Br)cc2)C[C@@H](OCCCCO)O1 | -11%
O=C1c2ccccc2NC(c2ccco2)N1/N=C/c1ccco1 (centres undefined) | 11%
Cc1cccc(NC(=O)COC(=O)c2cc(C)oc2C)c1 | -6%
CCCCNC(=O)C1CC(=O)N(C2CCCCC2)C1 (centres undefined) | 4%
NS(=O)(=O)c1ccc(NC(=O)NC2CC(=O)N(c3ccc4c(c3)OCCO4)C2)cc1 (centres undefined) | -15%
CCOc1ccc([N+](=O)[O-])cc1CNC1CCCCCCC1 | -5%
O=C1/C(=C/c2ccco2)CCc2ccccc21 | -21%
CCC(C)(C)n1nnnc1CN(Cc1ccco1)Cc1cc2cc3c(cc2[nH]c1=O)OCO3 | -5%
CCn1cc(CN2CCCC(CNS(=O)(=O)c3cccc4cccnc34)C2)cn1 (centres undefined) | -5%
CCOC(=O)CSc1ccc(S(=O)(=O)N2CCCCC2)cc1[N+](=O)[O-] | -12%
COC(=O)c1ccccc1NC(=O)c1cc(-c2ccc(O)cc2)on1 | -7%
CC(Oc1cc(C(F)(F)F)cc(C(F)(F)F)c1)C(=O)NC(N)=O (centres undefined) | 7%
CCN(CC)CCN=C1CCCc2ccccc2N1 | 12%
O=C1OC2CC3CC1CC(O)(C3)C2 (centres undefined) | -9%
SMILES | VDR inhibitor
CCc1ccc(-n2c(=O)c3ccc(C(=O)NCCc4ccccc4)cc3n(CC(N)=O)c2=O)cc1 | -17%&0%
CCOC(=O)c1cc2c(nc1NC(=S)Nc1ccccc1)CC(C)(CC)OC2 (centres undefined) | 2%
COc1ccc2c(CCNC(=O)c3ccc([N+](=O)[O-])cc3)c[nH]c2c1 | 7%
Cc1cc(Br)cc(Cl)c1OC(=O)c1ccncc1 | -9%
Cc1cccc(OCC2Cn3c(nc4c3c(=O)[nH]c(=O)n4C)O2)c1 (centres undefined) | -10%
CCOC(=O)C1CCN(C(=O)C2CCC(=O)N(CC3CCCCC3)C2)CC1 (centres undefined) | 3%
Cn1c(=O)oc2cc(S(=O)(=O)N3CCCC(C(=O)N4CCc5ccccc5C4)C3)ccc21 (centres undefined) | -22%
CCCc1cc(=O)[nH]c(SCc2nc(-c3ccc(OCC)cc3)no2)n1 | -2%
C=C(C)COc1ccc(-c2nc(N)ncc2-c2ccc(OC)c(OC)c2)c(O)c1 | 22%
O=C(CNC(=O)c1ccccc1)N/N=C/c1cn[nH]c1-c1ccccc1 | 26%
CC1CCN(CCOCCSc2ccc(Cl)cc2)CC1 | -9%
Cc1ccc(-c2nnc(SCC(=O)NC3CCCC3)n2N)cc1 | 4%
O=C(CNC1CCCCC1)Nc1cccc([N+](=O)[O-])c1 | -3%
C/C(=N\O)c1ccc2c3ccccc3n(C)c2c1 | -10%
CCn1c(SCC(=O)Nc2ccccc2N2CCOCC2)nnc1-c1ccccc1O | 0%
COC(=O)CCC(=O)Nc1ccccc1C(=O)Nc1ccccc1 | -5%
CC(Sc1nc2nn(-c3ccccc3)c(=O)c-2c2n1CCCCC2)C(N)=O (centres undefined) | 1%
CCOC(=O)c1c(C)[nH]c(C(=O)N/N=C/c2cc([N+](=O)[O-])ccc2O)c1C | 7%
O=C(Nc1ccccc1O)c1ccc2c(c1)C(=O)N(c1ccccc1)C2=O | -7%
Nc1nc(-c2nonc2N)no1 | 3%
O=C(Nc1ncc(Cc2ccc(C(F)(F)F)cc2)s1)c1ccc(-c2cccc([N+](=O)[O-])c2)o1 | 4%
COc1ccc(C2(C)NC(=O)N(CC(=O)Nc3cccnc3Cl)C2=O)cc1 (centres undefined) | 3%
COc1ccc2[nH]cc(CCN=C(NC(=O)c3cccc(Cl)c3)Nc3nc(C)cc(C)n3)c2c1 | 5%
CC(C)(C)NC(=O)C(c1ccc(F)cc1)N(C(=O)CCC(=O)Nc1ccccn1)C1CCCC1 (centres undefined) | 10%
Cc1ccc(OCC(=O)NNC(=O)C2CCN(c3ncccn3)CC2)cc1 | 7%
SMILES | VDR inhibitor
Cc1nc(-c2ccc(NC(=O)c3ccc(Br)o3)cc2)cs1 | -13%
CCOc1cc(CN2CCN(C(=O)c3ccco3)CC2)ccc1OC | 5%
O=C(CSc1nc(=O)[nH]c2c1CCCC2)NCc1ccc(F)cc1 | 12%
Cc1ccc(NS(=O)(=O)N2CCOCC2)c(C)c1 | 3%
COc1ccc(C(CNC(=O)COc2cccc(C(F)(F)F)c2)N2CCCC2)cc1 (centres undefined) | 6%
COc1ccc2[nH]c(S(=O)Cc3ncc(C)c(OC)c3C)nc2n1 (centres undefined) | 45µM*
O=C(Cc1ccc(NC(=O)C2CCN(C(=O)CCc3ccccc3)CC2)cc1)Nc1ccc(C(=O)N2CCOCC2)cc1 | -5%
Cc1noc(/C=C/c2ccco2)c1S(=O)(=O)N1CCC(C(=O)NC(C)c2ccccc2)CC1 (centres undefined) | -7%
COc1ccc(C)cc1NC(=O)c1ccc2c(SCC(=O)O)c3c(nc2c1)CCCC3 | -11%&-7%
CCc1cc2c(=O)n3c(nc2s1)-c1[nH]c2ccc(OC)cc2c1CC3 | 16%
Cc1cccnc1NC(=O)c1cccc(S(=O)(=O)N2CCN(c3ccc(F)cc3)CC2)c1 | 9%
CC(C)C(C)N(Cc1cccc(C(=O)O)c1)C(=O)c1ccc2ccccc2n1 (centres undefined) | -15%
CCOc1cccc(CNc2ccc(O)cc2)c1OCc1ccc(Cl)cc1 | ?
CCOC(=O)C1C(=O)N(O)CC1c1cccc(Oc2ccccc2)c1 (centres undefined) | 4%
CCN1CCN(CCCNC(=O)c2ccc3c(=O)n(CCc4ccccc4)c(=O)[nH]c3c2)CC1 | -21%
CC(C)N(C(=O)COC(=O)c1cncc(Br)c1)C(C)C | ?
O=C(NN1C(=O)c2ccccc2NC1c1ccco1)c1ccc([N+](=O)[O-])cc1 (centres undefined) | -10%
COc1ccc(NC(=O)c2cnn(-c3ccc(F)cc3F)c2C2CCN(C(=O)OC(C)(C)C)CC2)cc1Cl | 4%
COc1cc(C(=O)NCc2nnc(SCC(=O)Nc3cccc(C)c3)o2)cc(OC)c1OC | 23%
COc1ccc(CCNC(=O)c2ccc3c(c2)N(Cc2ccccc2)C(=O)c2ccccc2S3=O)cc1OC (centres undefined) | -11%
CC1(C)Cc2nc3oc4c(=O)n(CC(=O)Nc5ccccc5)cnc4c3cc2CO1 | -14%
COC(=O)c1cn(NC(=O)CCC2CCCC2)c(=O)c2ccccc12 | 4%
COc1ccc(CCNC(=O)Cn2cc(C(F)(F)F)cc(Cl)c2=O)cc1OC | -3%
COC(=O)CC1C(=O)NCCN1C(=S)NC(=O)c1ccccc1[N+](=O)[O-] (centres undefined) | -8%
Nc1ncnc2c1ncn2-c1ccccc1Cl | 4%

Reprinted at random: 2 records from the list, in no set order.
SMILES | VDR inhibitor
C/C(=N\O)c1ccc2c3ccccc3n(C)c2c1 | -10%
COC(=O)c1cn(NC(=O)CCC2CCCC2)c(=O)c2ccccc12 | 4%

Further entries follow:
SMILES | VDR inhibitor
CCCn1c(SCC(=O)Nc2ccc(F)c(Cl)c2)nc(O)cc1=O | -8%
Cc1c(Cc2ccccc2)c(=O)oc2c(C)c(OCC(=O)Nc3ccc(C#N)cc3)ccc12 | -2%
O=C(CN1CCN(c2ccc(F)cc2)CC1)Nc1nccs1 | -6%
CCOc1ccccc1C(=O)NC(C)c1ccc2c(c1)OCO2 (centres undefined) | 7%
CSc1cccc(NC(=O)C2CCN(S(C)(=O)=O)CC2)c1 | -6%
CC(C)C(=O)Nc1ccc(COc2ccccc2CN(Cc2ccccc2)C(=O)OC(C)(C)C)cc1 | -5%
COc1ccc2oc(C(=O)OCC(=O)Nc3ccc(N4CCOCC4)cc3)c(C)c2c1 | -3%
O=C(O)c1nn(CC(=O)N2CCN(c3ccccc3)CC2)c(=O)c2ccccc12 | 15%
Cc1ccc(C)c(-c2nn(-c3cc(N4CCN(CCO)CC4)ccc3[N+](=O)[O-])c(=O)c3ccccc23)c1 | 14%
O=C(NCc1ccccn1)C1CC(c2ccc(F)cc2)=NO1 (centres undefined) | 10%
c1ccc(C2[C@H]3CN(Cc4cccnc4)[C@H](c4ccccc4)C34CC2(c2cccnc2)C4)cc1 (some centres undefined) | -21%
COCCNC(=O)CN(Cc1cccs1)C(=O)CCC(=O)Nc1nccs1 | 1%
COc1ccc(-c2noc(Cn3c(=O)c4ccccc4n(CC(=O)Nc4cccc(C(F)(F)F)c4)c3=O)n2)cc1 | 12%
CCOc1cccc(/C(O)=C2/C(=O)C(=O)N(Cc3cccnc3)C2c2ccco2)c1 (centres undefined) | 6%
NC(=O)N(N)c1nc(N2CCCC2)nc(N2CCCC2)n1 | 11%
CCn1cc(C(=O)NCCCN(CC(C)C)CC(C)C)c(=O)c2cc(S(=O)(=O)N(C)C3CCCCC3)ccc21 | -13%&-9%
COc1ccc(C2=CC(c3ccc(OC)c(OC)c3)NC(=S)N2)cc1 (centres undefined) | -1%
COc1ccc(C)cc1NC(=O)C1CCN(S(=O)(=O)c2ccc3[nH]c4c(c3c2)CCCCC4)CC1 | 0%
COC(=O)CC(NC(=O)Nc1ccccc1F)c1ccc2c(c1)OCO2 (centres undefined) | -13%
CCOC(=O)C1CCN(C(=O)COC(=O)c2cc(-c3cccs3)nn2-c2ccccc2)CC1 | 4%
O=C(CN1C(=O)CSc2ccccc21)Nc1ccc2c(c1)OCCO2 | -10%
O=C(OCCOc1ccc(Br)cc1)c1cnccn1 | 2%
CCc1ccc(NC(=S)NC(=O)CC(C)C)cc1 | 0%
O=C(CCc1ccccc1)NCCSCc1c(F)cccc1Cl | -10%
Cc1c(C(=O)N2CCOCC2)sc2ncn(CC(=O)N3CCC(C)CC3)c(=O)c12 | -2%
SMILES | VDR inhibitor
Cn1ccnc1-c1nnn(-c2ccc(F)cc2)n1 | -9%
O=C(N/N=C/c1ccc2nccnc2c1)c1ccc(Br)cc1 | -14%
COc1ccc(C(=O)NNC(=O)Cn2nnc(-c3ccc(OC)c(OC)c3)n2)cc1 | -10%
COc1ccc(CNC(=O)c2cnn3c(C(F)F)cc(C)nc23)cc1OC | -21%
CCOC(=O)C1=C(C)OC(N)=C(C#N)C1c1cncc(-c2ccc(F)cc2)c1 (centres undefined) | -14%
COC(=O)C1N[C@@H]([C@@H](NC(=O)COc2ccccc2)C(=O)NCc2ccc(OC)cc2)SC1(C)C (some centres undefined) | -3%
COc1cccc(/C=N/n2nnnc2N)c1OCc1ccccc1Cl | 14%
COc1ccc(CCNCc2ccc(-c3ccccc3)cc2)cc1OC | 14%
CN(C)S(=O)(=O)c1cccc(NC(=S)NCCc2ccccn2)c1 | 2%
Cc1ccc(NC(=O)c2cc(=O)c3ccccc3o2)cc1S(=O)(=O)N1CCCCC1 | 1%
CC(NC(=O)CSc1ncn[nH]1)c1ccc(Cl)cc1Cl (centres undefined) | 6%
O=C(Nc1ccccc1C(=O)OCc1cc(=O)n2nc(C3CC3)sc2n1)c1ccc(Cl)cc1 | 9%
CCc1ccc2c(c1)c(=O)c(S(=O)(=O)c1ccc(F)cc1)cn2CC(=O)Nc1ccccc1OC | -23%
CCOC(=O)c1nnn(-c2nonc2-n2cccc2)c1CN1CCOCC1 | 0%
CCc1ccc(NS(=O)(=O)c2c(C(=O)N3CCCCCC3)c(C)n(C)c2C)cc1 | -5%
COc1ccc2c(c1)c1nnc(SC)nc1n2Cc1ccccc1 | 4%
CCOC(=O)c1sc(NC(=O)c2ccc(=O)[nH]c2)nc1C | 14%
CCc1ccccc1NC(=O)CN(C)Cc1c(O)ccc2ccccc12 | ?

By substructure, the compounds so far containing an NH in an aromatic ring (14)
SMILES | VDR inhibitor
CCC(C)(C)n1nnnc1CN(Cc1ccco1)Cc1cc2cc3c(cc2[nH]c1=O)OCO3 | -5%
COc1ccc2c(CCNC(=O)c3ccc([N+](=O)[O-])cc3)c[nH]c2c1 | 7%
Cc1cccc(OCC2Cn3c(nc4c3c(=O)[nH]c(=O)n4C)O2)c1 (centres undefined) | -10%
CCCc1cc(=O)[nH]c(SCc2nc(-c3ccc(OCC)cc3)no2)n1 | -2%
O=C(CNC(=O)c1ccccc1)N/N=C/c1cn[nH]c1-c1ccccc1 | 26%
CCOC(=O)c1c(C)[nH]c(C(=O)N/N=C/c2cc([N+](=O)[O-])ccc2O)c1C | 7%
COc1ccc2[nH]cc(CCN=C(NC(=O)c3cccc(Cl)c3)Nc3nc(C)cc(C)n3)c2c1 | 5%
O=C(CSc1nc(=O)[nH]c2c1CCCC2)NCc1ccc(F)cc1 | 12%
COc1ccc2[nH]c(S(=O)Cc3ncc(C)c(OC)c3C)nc2n1 (centres undefined) | 45µM*
CCc1cc2c(=O)n3c(nc2s1)-c1[nH]c2ccc(OC)cc2c1CC3 | 16%
CCN1CCN(CCCNC(=O)c2ccc3c(=O)n(CCc4ccccc4)c(=O)[nH]c3c2)CC1 | -21%
COc1ccc(C)cc1NC(=O)C1CCN(S(=O)(=O)c2ccc3[nH]c4c(c3c2)CCCCC4)CC1 | 0%
CC(NC(=O)CSc1ncn[nH]1)c1ccc(Cl)cc1Cl (centres undefined) | 6%
CCOC(=O)c1sc(NC(=O)c2ccc(=O)[nH]c2)nc1C | 14%

Screening data (PubChem)

These rows are one share of the data (hit frequency here may not be typical).
